# High-throughput results deposited in PubChem by National Center for Advancing Translational Sciences (NCATS).
# LASV entry inh = Lassa virus entry inhibition. Lassa virus pseudotype entry inhibition, cell reporter; control for the full effect not named in the record. Potency, µM (titrated, usually from 37.9 µM), for inactives: top-dose activity change, negative = inhibition, hits mostly inhibitors. hit rate 1.2% among 300,000. AID 540256; active means well fitted inhibition curve with a large enough effect; inconclusive means small, poorly fitted or top-dose-only effect, or effect the other way; inactive means flat fitted curve, though single readings scatter; tested in HEK293 cells; further: on the % scale 0 is the no-effect control and ±100 the full control effect; nearly all actives have a fitted effect of over 50% in size; luciferase read-out
# MARV entry inh = inhibitors of Marburg virus binding or cell entry; Marburg virus pseudotyped entry inhibition, cell reporter; control for the full effect not named in the record; about a third of the inactives were read at about 46 µM; Potency, µM (top dose mostly 37.8 µM), without a hit: top-dose activity change, negative = inhibition, actives largely listed as inhibitors; hit rate 1.8% among 300,000; AID 540276; active = well fitted inhibition curve with a large enough effect; inconclusive = small, poorly fitted or top-dose-only effect, or effect the other way; inactive = flat fitted curve, though single readings scatter; tested in HEK293 cells; about a fifth of its hits are not listed in these tables; further: on the % scale 0 is the no-effect control and ±100 the full control effect; luciferase read-out
# RE007 growth inh = less growth of the S. pombe RE007 Vpr strain; S. pombe RE007 Vpr strain, BacTiter-Glo ATP luminescence, 24 h; control for the full effect not named in the record; Potency, µM (titrated, usually from 92.2 µM), for inactives: at the top dose activity change, negative = less growth; hit rate 0.21% among 360,000; AID 651644; active = well fitted falling curve with a large enough effect; inconclusive = small, poorly fitted or top-dose-only effect; inactive = no such curve, though single readings can be large or run the other way;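 further: on the % scale 0 is the no-effect control and ±100 the full control effect; nearly all actives have a fitted effect of over 50% in size; the assay follows cell death caused by Vpr and the record does not say whether a fall means rescue or toxicity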
#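 Fission yeast RE007 carrying one integrated HIV-1 vpr copy, seeded at OD 0.01 in PMG+AL medium with 23 nL pinned compound. Grown 24 h at 30 degrees; viability read by BacTiter-Glo luminescence after 5 min.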
# SARS PLP yeast = blocks SARS-CoV papain-like protease in a yeast assay; hit rate 0.19% among 330,000; Potency, µM (titrated, usually from 32.9 µM), for the others: at the highest dose activity, positive = growth rescue; S. cerevisiae expressing SARS-CoV PLpro, growth rescue; control for the full effect not named in the record; further: 0% is about no effect; nearly all actives have a fitted effect of over 55% in size; growth read by luminescence after 48 h
# Cruzain inh noDet = cruzain (T. cruzi) inhibition without detergent | P25779 | hit rate 2.3% among 200,000 | AID 1476 | purified cruzain, Z-FR-AMC fluorescence, no detergent | Potency, µM, without a hit: max response, negative = inhibition, usual class: inhibitors; active means well fitted curve in the direction sought with a large enough effect; inconclusive means small, poorly fitted or top-dose-only effect, or another doubt; inactive means no such curve, though single readings can be large; an effect the other way counts as inactive or inconclusive;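 further: plate controls were enzyme without inhibitor for no effect and buffer without enzyme for full effect; nearly all actives have a fitted effect of over 40% in size; top concentration of the series not given in the record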
# Target sequence (P25779 123-467 limits assumed): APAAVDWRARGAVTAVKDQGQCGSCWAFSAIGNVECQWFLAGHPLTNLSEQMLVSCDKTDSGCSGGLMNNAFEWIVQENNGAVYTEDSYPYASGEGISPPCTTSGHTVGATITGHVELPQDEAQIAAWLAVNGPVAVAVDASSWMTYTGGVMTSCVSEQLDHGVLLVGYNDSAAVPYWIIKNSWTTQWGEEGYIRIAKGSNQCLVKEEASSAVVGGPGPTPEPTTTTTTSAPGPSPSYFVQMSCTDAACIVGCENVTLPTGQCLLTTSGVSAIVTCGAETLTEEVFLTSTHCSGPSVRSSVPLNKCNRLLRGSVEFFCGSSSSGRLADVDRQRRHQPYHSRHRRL
#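 Purified cruzain at 1.5 nM, pre-incubated 15 min with compound at room temperature in 100 mM sodium acetate pH 5.5, 5 mM DTT, 0.00005% Triton X-100. Reaction started with 2 uM Z-FR-AMC; AMC fluorescence increase over 60 s gives rate.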
# NS1 function inh = influenza NS1 inhibition; S. cerevisiae slowed by influenza A NS1, growth recovery by OD600; Potency, µM (titrated, usually from 46.1 µM), for the others: at the highest dose activity, positive = more growth; hit rate 0.4% among 270,000; AID 2326; further: actives are rising curves; nearly all actives have a fitted effect of over 50% in size
#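 Read-out: OD600 growth recovery of NS1-expressing budding yeast. Cells grown overnight at 30C in -URA glucose medium, washed, resuspended and diluted 1:100 in 2% galactose assay medium, pH 6.0. Same strain lacking NS1 served as positive control.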
# Cruzain Triton = cruzain (T. cruzi) inhibition with detergent | P25779 | Potency, µM, for inactives: max response, negative = inhibition, actives largely listed as inhibitors | purified cruzain, Z-FR-AMC fluorescence, 0.01% Triton | hit rate 0.43% among 200,000; active means well fitted curve in the direction sought with a large enough effect; inconclusive means small, poorly fitted or top-dose-only effect, or another doubt; inactive means no such curve, though single readings can be large; an effect the other way counts as inactive or inconclusive;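 further: plate controls were neutral wells for no effect and buffer without enzyme for full effect; nearly all actives have a fitted effect of over 40% in size; top concentration of the series not given in the record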
#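 Steps: dispense cruzain (1.5 nM final) in acetate buffer pH 5.5 with DTT and 0.01% Triton X-100; pin-transfer compounds; incubate 15 min RT; add Z-FR-AMC (2 uM final); read fluorescence every 30 s, using the 60 s intensity change.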
# StopGo reporter = lowers the luciferase signal of an FMDV 2A StopGo reporter; human cells with a luciferase reporter of 2A StopGo recoding; control for the full effect not named in the record; Potency, µM (series often up to 57.9 µM), inactives show top-dose signal change, negative = less light; hit rate 1.2% among 410,000; AID 1159524; active = well fitted falling curve with a large enough effect; inconclusive = small, poorly fitted or top-dose-only effect; inactive = no such curve, though single readings can be large or run the other way; tested in HEK293T cells; further: on the % scale 0 is the no-effect control and ±100 the full control effect; nearly all actives have a fitted effect of over 45% in size; luciferase light after 4 h
# Active calls of the source: *; ? = inconclusive; / = no result given; [ ] = dose if it differs, or a comment. Unless noted, the call rests on the fitted dose curve; in most records, active means well fitted rising curve with a large enough effect; inconclusive means small, poorly fitted or top-dose-only effect; inactive means no such curve, though single readings can be large or run the other way. Potency means the concentration at half of the fitted maximal effect.
SMILES,LASV entry inh,MARV entry inh,RE007 growth inh,SARS PLP yeast,Cruzain inh noDet,NS1 function inh,Cruzain Triton,StopGo reporter
CCN(CC(=O)Nc1ccccc1C(F)(F)F)C(=O)Cc1ccccc1,3%[46.1 µM],25%[46.1 µM],-15%,11%,/,0%,/,-4%
Cc1ccc(CSc2nnc(-c3ccco3)n2N)cc1,3%,?,17%,-1%,-4%,-10%,0.8%,-9%
CNC(=O)c1c(NC(=O)c2cccc(N3C(=O)CCC3=O)c2)sc2c1CCC2,/,/,44%,1%,/,9%,/,-12%
Cc1oc(-c2ccccc2Cl)nc1CS(=O)(=O)CC(=O)NC(C)CCc1ccccc1 (stereo unspecified),-16%[46.1 µM],?,/,/,?,/,-7.9%,-20%
COc1cc(/C=C2\SC(=O)N(CC(=O)Nc3ccccc3F)C2=O)cc(Cl)c1O,?,?,-1%,2%,/,1%,/,-6%
O=C(/C=C/c1ccccc1)NC(=S)Nc1ccccc1C(=O)NC1CCCCC1,?,-30%,11%,-1%,?,-14%,1.1%,/
C/C(=N\NC(=S)NCC(C)(C)C)c1cc(F)cc(F)c1O,?,21%[46.1 µM],2%,-2%,/,1%,/,-29%
CC(C)(C)NC(=O)COC(=O)c1ccccc1Nc1ccc(SC(F)F)cc1,?,?,4%,-15%,0%,-20%,-10.0%,?
O=C(COC(=O)c1ccc(Cl)cc1[N+](=O)[O-])NNC(=O)c1cccs1,?,-3%,1%,0%,/,/,/,2%
CCOC(=O)c1ccc2c(c1)nc(COc1ccccc1C#N)n2CC,/,/,/,2%,6%,7%,2.3%,/
Cc1ccc2nc(COc3cccc(NC(=O)c4cccc(Cl)c4)c3)cc(=O)n2c1,?,/,/,/,-17%,/,1.2%,-18%
CN(Cc1ccccc1)C(=O)COc1ccc(N(C)S(=O)(=O)c2ccc(F)cc2)cc1,/,/,-1%,2%,/,-9%,/,-16%
COCCNC(=O)/C(C#N)=C/c1c(N2CCN(C)CC2)nc2c(C)cccn2c1=O,4%,?,-14%,0%,/,6%,/,-2%
O=S(=O)(/N=C(/Nc1cccc2ccccc12)c1ccc(F)cc1)c1ccccc1,?,?,0%,2%,/,-4%,/,-4%
CCN(C(=O)Cc1nc(-c2ccc(OC)cc2)no1)c1cccc(Cl)c1,10%[46.1 µM],/,/,/,-5%,/,-6.4%,-24%
N#Cc1ccc(COC(=O)CC(NC(N)=O)c2ccc(Cl)cc2)cc1 (stereo unspecified),0%[46.1 µM],5%[46.1 µM],20%,-1%,/,4%,/,6%
C=C(C)COc1ccc(-c2[nH]ncc2Oc2cccc(OC)c2)c(O)c1,1.6µM*,-30%,?,-18%,-8%,-160%,1.0%,23%
CN(C)C(=O)Oc1ccnc2cc(Cl)ccc12,14%,1%[46.1 µM],0%,1%,/,-4%,/,-12%
COc1ccc(OC)c(CNC(=O)c2c(C)oc3ncn(C)c(=O)c23)c1,16%[46.1 µM],/,/,/,4%,/,-1.9%,0%
COC(=O)c1ccc(OC)c(CSc2nnc(-c3ccc(C(C)(C)C)cc3)o2)c1,?,?,17%,-19%,2%,17%,0.2%,-26%
O=C(NCC1CCCO1)c1onc(CSc2ccc(F)c(F)c2)c1C(=O)O (stereo unspecified),/,/,-10%,3%,1%,20%,0.1%,-4%
CCOC(=O)/C=C/COc1ccccc1[N+](=O)[O-],0%,7%[46.1 µM],-9%,-16%,/,/,/,60%[activator]
COc1ccc(NC(=O)Cn2c3ncccc3c(=O)n2-c2ccc(C)c(C)c2)c(OC)c1,-15%[46.1 µM],/,/,/,17%,/,0.6%,-9%
CCCc1cc(=O)oc2cc(C)cc(OCC(=O)Nc3cccnc3)c12,/,/,4%,-2%,/,10%,/,-15%
Cc1ccc(CNC(=O)c2cnn(-c3ccc(F)cc3F)c2C2CCN(C(=O)OC(C)(C)C)CC2)cc1,?,/,/,/,7%,/,-12%,-25%
COc1cccc(/C=C/c2nc3ccccc3c(=O)n2-c2ccc(C)c(C)c2)c1OC,?,/,/,/,15%,/,0.2%,?
Cc1ccsc1C(=O)NCc1ccc(F)cc1,-1%[46.1 µM],10%[46.1 µM],9%,-1%,/,-19%,/,0%
COc1ccc(OC)c(S(=O)(=O)N2CCC(C(=O)Nc3cc(C)ccc3C)CC2)c1,?,?,-1%,12%,-8%,-2%,4.7%,/
C=CCN1C(=O)c2ccc(C(=O)N(C)CC(=O)Nc3ccc(OCC)c(OCC)c3)cc2C1=O,-2%,-4%,-5%,3%,/,/,/,-13%
Cc1cccc(OCC(O)CN2CCOCC2)c1 (stereo unspecified),/,/,2%,6%,/,22%,/,-4%
O=C(C1CC1)N1CCc2cc(S(=O)(=O)N3CCOCC3)ccc21,?,4%,0%,4%,-7%,0%,3.2%,1%
Cc1cc2ncn(-c3ncnc4sc(C)c(C)c34)c2cc1C,-29%,-29%,-7%,-2%,-2%,-36%,-5.2%,?
O=C(Nc1ccc(NC(=O)C2CC2)nc1)c1cnccn1,/,/,-5%,-1%,/,-6%,/,40%[activator]
COc1ccc(NC(=O)C2COc3ccccc3O2)cc1 (stereo unspecified),22%[46.1 µM],?,-24%,-6%,/,-10%,/,13%
Cc1ccnc(NC(=O)c2cccs2)c1,?,?,-30%,0%,-7%,-24%,6.1%,36%[activator]
Cc1cc(C)nc(Sc2c(C)nn(-c3ccccc3)c2C)n1,-3%,-17%,-13%,-6%,5%,-54%,0.2%,-22%
Cc1ccc(C(=O)c2oc3nc(C)cc(C)c3c2N)cc1,-3%,-6%,-3%,-1%,-1%,-14%,-7.1%,7%
CCN1CCN(CCNC(=O)c2cn(C(C)c3ccccc3F)nn2)CC1 (stereo unspecified),?,6%,4%,1%,-2%,-5%,-3.4%,1%
Cn1cnnc1SCC(=O)Nc1cc(C(=O)O)cc(C(=O)O)c1,13%[46.1 µM],/,/,/,0%,/,1.3%,5%
CC(C)c1ccc(C(=O)Nc2ccc(-c3nc4ccccc4s3)c(Cl)c2)cc1,19%[46.1 µM],-5%[46.1 µM],/,/,-4%,/,-2.4%,-22%
CC(=O)C1C(=O)c2c(cccc2[N+](=O)[O-])C1=Nc1ccccc1C (stereo unspecified),/,/,/,1%,-1%,-9%,1.3%,/
CCOc1ccc(Br)cc1C1C(C(=O)Nc2ccccc2OC)=C(C)Nc2nnnn21 (stereo unspecified),-5%[46.1 µM],?,/,/,9%,/,-1.1%,1%
CS(=O)(=O)N(CC(=O)NCCSC1CCCCC1)c1ccccc1,8%,?,13%,1%,/,4%,/,3%
Cn1c(SCC(=O)NC2(C#N)CCCCC2)nnc1-c1cccnc1,0%,-17%,-3%,-2%,/,11%,/,-21%
O=C1C2CCCN2C(c2cccnc2)N1c1nccs1 (stereo unspecified),-6%,-6%,7%,-2%,-3%,-10%,8.8%,-16%
CCCCC1CCC(c2ccc(C(N)=O)cc2)CC1 (stereo unspecified),-10%,6%,19%,0%,?,-8%,0.7%,4%
Cc1ccc(CNC(=O)c2ccc(NS(=O)(=O)c3c(C)noc3C)cc2)cc1,3%,15%,0%,-4%,7%,-4%,-0.8%,-1%
COc1ccc2c(c1)c1c(c(=O)n(-c3ccc(F)c(Cl)c3)c(=O)n1Cc1cccc(C)c1)n2C,28%[46.1 µM],/,/,/,-3%,/,-3.9%,-21%
COc1ccc(OCCN2CCOCC2)cc1,/,/,3%,-4%,/,9%,/,-4%
COc1ccccc1-n1c(CNC(=O)c2ccc(S(=O)(=O)N3CCCCC3)cc2)n[nH]c1=S,1%,27%,-1%,-7%,/,3%,/,-12%
COc1ccc(CCNC(=O)c2cccc(NC(=O)CC3SC(N4CCCCC4)=NC3=O)c2)cc1OC (stereo unspecified),0%,11%,8%,?,/,3%,/,?
CC(C)(C)OC(=O)N1CCC(c2c(C(=O)O)cnn2-c2ccccc2)CC1,19%,18%,7%,2%,-7%,5%,3.1%,7%
c1ccc(Sc2ncnc3c2oc2ccccc23)cc1,?,?,-18%,-25%,19%,-6%,-3.1%,7%
O=C(NCc1ccc2[nH]c3c(c2c1)CCCC3)c1ccc(S(=O)(=O)N2CCOCC2)cc1,?,-3%,12%,4%,8%,?,-4.9%,-5%
COc1ccccc1CNC(=S)Nc1ccc(F)cc1,-39%[46.1 µM],-15%[46.1 µM],4%,3%,/,12%,/,41%[activator]
O=C(c1ccco1)N1CCCC(c2ccccc2)C1 (stereo unspecified),9%,?,7%,-4%,-15%,6%,-5.7%,-6%
COc1ccccc1CNC(=O)C1CC(=O)N(c2ccc(C)c(C)c2)C1 (stereo unspecified),0%,-30%,11%,-1%,2%,-8%[9.22 µM],1.8%,/
O=C(NCCCN1CCOCC1)c1ccc(CNS(=O)(=O)c2ccc(F)cc2)cc1,23%,0%,4%,3%,0%,-4%,4.9%,14%

# Nothing new here: entries from further up.
SMILES,LASV entry inh,MARV entry inh,RE007 growth inh,SARS PLP yeast,Cruzain inh noDet,NS1 function inh,Cruzain Triton,StopGo reporter
O=C(c1ccco1)N1CCCC(c2ccccc2)C1 (stereo unspecified),9%,?,7%,-4%,-15%,6%,-5.7%,-6%
COc1ccccc1CNC(=O)C1CC(=O)N(c2ccc(C)c(C)c2)C1 (stereo unspecified),0%,-30%,11%,-1%,2%,-8%[9.22 µM],1.8%,/
O=C(NCCCN1CCOCC1)c1ccc(CNS(=O)(=O)c2ccc(F)cc2)cc1,23%,0%,4%,3%,0%,-4%,4.9%,14%
